# Source: PubChem BioAssay
# miR-21 reporter = raises the signal of a miR-21 reporter; Potency, µM (doses to about 38.3 µM), inactives show at the top dose reporter change, positive = more light; AID 2288; 340,000 tested, under 10 active; HeLa miR-21 FLuc reporter, luciferase, 48 h; active = well fitted rising curve with a large enough effect; inconclusive = small, poorly fitted or top-dose-only effect; inactive = no such curve, though single readings can be large or run the other way;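 further: % of control where 0% means no effect; miR-21 action dims this reporter so a rising signal means less miR-21 action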
#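 HeLa cells stably expressing CMV-driven firefly luciferase with a downstream miR-21 binding sequence, endogenously expressing miR-21, were treated with titrations (up to about 40uM final) for 48 hours at 37 degree Celsius. Luciferase luminescence was read after lysis.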
# Rango release inh = inhibitors of RanGTP-induced Rango-importin beta complex dissociation. Potency, µM (highest dose often 46.1 µM), without a hit: top-dose activity change, negative = inhibition. Biochemical FRET Rango-importin beta, RanGTP-induced dissociation. O95149+P62826. 340,000 tested, 0.071% active; active means falling FRET ratio curve, often poorly fitted, with flat reads before Ran was added; inconclusive means other falling curves, or compound fluorescence or quenching; inactive means flat or rising ratio curve;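 further: potency means the concentration at half of the fitted maximal effect; % of control where 0% means no effect; nearly all actives have a fitted effect of over 45% in size; -100% = wells without RanGTP and RCC1; the record marks most hits as doubtful in a second field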
#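 Compounds preincubate 5 min with complex of recombinant Rango and importin beta in PBS with 1 mM DTT. Ran (0.6 uM) loaded with 2 mM GTP plus 0.2 uM RCC1 starts dissociation; FRET is recorded 45 min later.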
# Rango-impB inh = Rango-importin beta binding inhibition; Q14974; Rango CFP/YFP FRET sensor + importin beta, 45 min; 340,000 tested, 0.031% active; Potency, µM (doses to about 92.2 µM), for the others: at the highest dose inhibition of complex formation; active = rising FRET ratio curve, often small or poorly fitted; inconclusive = mostly compound fluorescence or quenching in the first reads; inactive = flat curves in all reads;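 further: potency means the concentration at half of the fitted maximal effect; 0% = DMSO wells and 100% = buffer wells lacking importin beta; nearly all actives have a fitted effect of over 15% in size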
# Target sequence (Q14974 whole entry, looked up): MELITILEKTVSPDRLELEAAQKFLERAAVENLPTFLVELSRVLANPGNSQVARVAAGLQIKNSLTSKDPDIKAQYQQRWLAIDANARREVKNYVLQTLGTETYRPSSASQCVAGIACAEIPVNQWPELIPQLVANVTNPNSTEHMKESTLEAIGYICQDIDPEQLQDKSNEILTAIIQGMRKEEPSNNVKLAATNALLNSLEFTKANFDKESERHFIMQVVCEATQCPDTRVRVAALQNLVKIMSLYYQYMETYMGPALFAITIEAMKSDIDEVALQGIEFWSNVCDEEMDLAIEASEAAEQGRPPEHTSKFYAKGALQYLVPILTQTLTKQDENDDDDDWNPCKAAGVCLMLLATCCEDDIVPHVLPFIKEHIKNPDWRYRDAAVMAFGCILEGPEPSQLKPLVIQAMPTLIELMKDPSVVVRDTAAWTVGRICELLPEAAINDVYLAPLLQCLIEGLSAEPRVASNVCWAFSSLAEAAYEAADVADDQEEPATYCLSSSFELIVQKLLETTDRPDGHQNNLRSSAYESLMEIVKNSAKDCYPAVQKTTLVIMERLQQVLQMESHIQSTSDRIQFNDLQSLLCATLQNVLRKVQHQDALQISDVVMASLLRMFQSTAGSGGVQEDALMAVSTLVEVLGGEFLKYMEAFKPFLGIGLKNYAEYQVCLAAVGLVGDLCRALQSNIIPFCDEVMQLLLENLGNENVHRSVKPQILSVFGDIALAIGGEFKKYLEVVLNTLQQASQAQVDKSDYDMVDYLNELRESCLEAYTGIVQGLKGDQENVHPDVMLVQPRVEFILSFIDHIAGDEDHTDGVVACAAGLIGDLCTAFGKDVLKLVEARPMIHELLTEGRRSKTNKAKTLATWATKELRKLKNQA
#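 FRET biosensor (snurportin 1 IBB flanked by EYFP and cerulean), 50 nM, with compound 5 min, then 0.125 microM importin beta in PBS, 1 mM DTT, 0.02% Tween-20, 0.1% BSA. CFP/YFP ratio read after 45 min at room temperature; pre-read flags interference.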
# GLA inh pH 4.5 = inhibitors of human alpha-galactosidase A at pH 4.5 | 230,000 tested, under 10 active | P06280 | AID 1467 | purified enzyme, 4-MU-alpha-Gal fluorescence, pH 4.5 | activity change, negative = inhibition, % at 105 µM; inconclusive = small, poorly fitted or top-dose-only inhibition, or a rising curve; inactive = flat fitted curve, though single readings scatter; no compound was filed as active;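 further: 0% = full activity with enzyme and -100% = basal without enzyme; dose as in the result columns while the protocol names 77 µM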
# An asterisk follows results filed as active; ? = inconclusive; / = no result given; & = joins results of further samples; [ ] = dose if it differs, or a comment.
SMILES,miR-21 reporter,Rango release inh,Rango-impB inh,GLA inh pH 4.5
O=C1c2ccccc2C(=O)N1Cc1nc2ccccc2c(=O)n1-c1cccnc1,-5.6%,-7.1%,-3.1%,4.2
CCCCn1c(=O)c(C(=O)Nc2ccccc2C)c(O)c2ccccc21,-3.9%,6.3%,?,/
N#Cc1ccc(NC(=O)CN2CCN(C(=O)c3cccs3)CC2)cc1Cl,/,-29.5%,0.7%,/
COC(=O)C1=C(c2cccc(OCc3ccccc3)c2)C[C@@H]2CC[C@H]1N2C(=O)NCc1ccc(C(F)(F)F)cc1,/,-2.1%,-0.2%,/
CCC(C)C12CN3CCN(CC(C)(C3)C1=O)C2 (configuration not stated),-1.9%,2.3%,3.0%,-3.2
CP(C)(=O)CCC(=O)O,-0.2%,0.6%,-2.5%,10.1
COc1ccc(NC2(C#N)CCCCC2)cc1,-7.3%,-6.4%,-0.4%,-4.6
Cc1ccc(-n2c(O)c(C=NCCN3CCOCC3)c(=O)[nH]c2=O)cc1,0.1%,2.2%,-2.8%,-9.5
COc1cccc(CN2CCCCC2c2cccnc2)c1 (configuration not stated),-3.8%,11.3%,-1.1%,-12.0
CN(C)CCN=Cc1c(O)n(CCC2=CCCCC2)c(=O)[nH]c1=O,-1.0%,-14.4%,4.8%,-3.1
Cc1cc[n+](Cc2ccccc2)cc1,/,-8.4%,-0.1%,/
CCOc1cc2c(cc1OCC)-n1cccc1C(c1ccccc1F)NC2 (configuration not stated),0.7%,13.2%,0.9%,/
O=c1[nH]c(=O)n(Cc2ccccc2)c(O)c1C=NCCCn1ccnc1,-1.0%,-20.9%,?,-6.6
CC(C)[C@@]1(NC(=O)[C@@H]2C[C@@H]3c4cccc5[nH]cc(c45)C[C@H]3N(C)C2)O[C@@]2(O)[C@@H]3CCCN3C(=O)[C@H](Cc3ccccc3)N2C1=O,-0.7%,7.0%,-1.3%,-0.4&-9.9
O=C1/C(=C/c2ccccc2)C[C@@]2(O)[C@H]3Cc4ccc(O)c5c4[C@@]2(CCN3CC2CC2)C1O5 (some centres not stated),/,0.7%,-3.7%,/
Cc1ccc(NC(=S)NCC2CCCO2)cc1 (configuration not stated),-30.4%,-14.2%,1.6%,-3.6
COc1ccc2c(c1)NP(=S)(c1ccccc1)N2 (configuration not stated),/,?,?,/
Cc1ccc2c(c1Cl)NC(C(=O)O)C1CC(Sc3ccccc3[N+](=O)[O-])C(Cl)C21 (configuration not stated),4.4%,11.1%,0.3%,-1.8
CC1=C(C(=O)N2CCC3(CC2)OCCO3)C2(CCC(C)CC2)OC1=O (configuration not stated),1.8%,0.7%,-5.2%,4.4
CCC(N)Cc1c[nH]c2ccccc12 (configuration not stated),4.1%,-8.9%,-1.2%,-0.3
O=C1NC(=O)C2(Cc3cc([N+](=O)[O-])ccc3N3CCN(C(=O)c4ccccc4)CC32)C(=O)N1 (configuration not stated),10.4%,-23.3%,-1.1%,/
Cc1cc(OC(C)C(=O)NCc2cccnc2)c2c3c(c(=O)oc2c1)CCC3 (configuration not stated),4.3%,-2.4%,0.0%,/
NC(=O)Nc1ccc(C(=O)OCC(=O)Nc2ccc(Cl)cc2C(=O)c2ccccc2)cc1,-3.4%,-0.2%,-2.1%,2.9
CC(CN1CCOCC1)OC(=O)Cc1ccccc1 (configuration not stated),-1.7%,2.0%,-2.5%,5.0
C=C1N2CCC(CC2)C1(O)c1ccc(C)c(C)c1 (configuration not stated),-1.0%,1.2%,5.8%,3.4
COC(=O)C1=C(c2c(C)noc2C)C[C@@H]2CC[C@H]1N2C(=O)N1CCC(O)CC1,/,0.3%,2.3%,/
N[C@@H](Cc1c[nH]c2ccccc12)c1nnc(SCc2ccccc2F)o1,-13.2%,-14.2%,-1.1%,-1.9
O=P(Nc1cccc(Cl)c1)(Oc1ccccc1)Oc1ccccc1,5.7%,17.6%,6.4%,-6.0
O=C1NC(=O)N(c2ccc(F)cc2)C(=O)/C1=C/c1ccc(N2CCOCC2)cc1,0.8%,-12.0%,1.2%,-1.2
Cc1ccc(-c2nc3ccccc3c(=O)n2-c2ccccn2)cc1,-9.5%,1.2%,-1.0%,3.6
CCn1c(C)cc(/C=C2\C(=O)NC(=O)N(c3ccccc3C)C2=O)c1C,-0.8%,-24.5%,-2.3%,6.2
CN1C(=O)NC(c2cccc(O)c2)C(C(=O)c2cccs2)C1(O)C(F)(F)F (configuration not stated),-44.9%,-1.4%,-2.6%,-7.8
Cc1nc2c(-c3ccccc3)c(C)nn2c(C)c1CCC(=O)N1CCC2(CC1)OCCO2,-26.0%,0.7%,2.7%,-1.2
Clc1ccccc1C1=NCc2nncn2-c2sc(Br)cc21,/,-5.0%,1.3%,/
COc1cc2c(cc1OC)C(C1c3cc4c(cc3CCN1C)OCO4)OC2=O (configuration not stated),-1.2%,-2.4%,-0.2%,/
Cc1ccc(-n2c(O)c(C=NCCC3=CCCCC3)c(=O)[nH]c2=O)cc1,-1.8%,-11.0%,-0.2%,1.9
COC(=O)C1=C(c2c(C)noc2C)C[C@@H]2CC[C@H]1N2C(=O)N1CCC(C)CC1,/,0.4%,-0.8%,/
Cc1nc(C)c(C(=O)NN=Cc2ccc(N(CCCl)CCCl)cc2)s1,/,-11.9%,?,/
O=C(NCCN1CCCCC1)c1ccc(Cl)nc1Cl,-3.0%,-18.5%,-0.1%,-7.0
C=CCOc1ccc(CC2C(=O)N(C)C(=O)N(C)C2=O)cc1,-10.8%,7.4%,-1.2%,-4.1
Cc1c(C(=O)Nc2ccccc2)cc(-c2ccccc2)n1CCCN1CCOCC1,0.6%,-4.6%,-1.2%,-5.9
COc1cc2c(C(=O)O)c(C)n(C)c2cc1Br,-2.9%,1.9%,-1.1%,1.9
Cc1noc(C)c1CSCC(=O)Nc1ccc(C#N)c(Cl)c1,/,14.6%,-4.1%,/
Cc1ccc(C2=NN(CCC(=O)N3CCC4(CC3)OCCO4)C(=O)CC2)cc1,-0.9%,23.9%,4.3%,-14.3[21.1 µM]
Clc1ccccc1CN1CCNCC1,-4.5%,-12.4%,4.0%,/
C#CC[N+]1(C)[C@@H]2CC(OC(=O)C(CO)c3ccccc3)C[C@H]1C(O)C2 (some centres not stated),0.0%,17.7%,2.2%,/
CN=C(SCC(=O)c1cccc(Cl)c1)c1c(O)n(C)c(=O)n(C)c1=O,0.6%,2.3%,2.9%,-5.1
CCOC(=O)c1ccc(NC(=O)C2C3C=CC(O3)C2C(=O)O)cc1 (configuration not stated),-25.0%,/,/,-3.7
CCOC(=O)C(=O)NC1CCSC1=O (configuration not stated),-0.2%,-8.2%,3.2%,4.6
Nc1ccc(Cc2ccc(N)c(Cl)c2)cc1Cl,/,-4.9%,-1.3%,/

# Rewritten with two lines to a compound: two of the compounds above
# Every second line gives: miR-21 reporter | Rango release inh | Rango-impB inh | GLA inh pH 4.5
Nc1ccc(Cc2ccc(N)c(Cl)c2)cc1Cl
→ / | -4.9% | -1.3% | /
Cc1c(C(=O)Nc2ccccc2)cc(-c2ccccc2)n1CCCN1CCOCC1
→ 0.6% | -4.6% | -1.2% | -5.9

# Continuation.
SMILES,miR-21 reporter,Rango release inh,Rango-impB inh,GLA inh pH 4.5
COC1=CC(=O)[C@]2(C=C1OC)OC[C@@H]1Oc3c(ccc4c3C=CC(C)(C)O4)C(=O)[C@@H]12,/,-2.9%,-2.3%,/
Cc1ccc(N=Nc2cc(C)ccc2N)cc1,-15.1%,19.8%,-0.3%,-5.8
CCn1ccnc1CN1CCCC(C(=O)c2cc(Cl)ccc2OC)C1 (configuration not stated),1.2%,-4.3%,-1.4%,-4.8
O=c1[nH]c(=O)n(Cc2ccc(F)cc2)c(O)c1/C=N/Nc1ccccc1,13.6%,-2.3%,2.6%,-6.4
COC(=O)c1cccc(NC(=O)N2C[C@H]3C[C@@H](C2)c2cccc(=O)n2C3)c1,2.5%,1.5%,2.0%,/
Cc1ccc(Cn2cc(C=O)c(-c3ccc(F)cc3)n2)cc1,-1.3%,-2.1%,8.3%,/
COc1ccccc1N1C(=O)NC(=O)C2(Cc3cc(C)ccc3N(C)C2)C1=O (configuration not stated),-1.4%,-2.1%,-1.1%,8.8
CN(C)CC#CCOCCOCCC#N,0.4%,-3.0%,-1.1%,-3.5
COC(=O)C1=C(c2ccc(F)cc2OCc2ccccc2)C[C@@H]2CC[C@H]1N2C(=O)NCc1ccc(F)cc1,/,0.0%,2.8%,/
O=c1[nH]c(=O)n(Cc2ccccc2)c(O)c1/C=N/NCCO,0.9%,-14.4%,?,-5.8
CC1(C)C(c2ccccc2)=NC(c2cccnc2)N1O (configuration not stated),-9.0%,14.4%,?,-7.3
C/C(CCc1c[nH]c2ccccc12)=N\O,-6.0%,-4.2%,-2.3%,0.0
Cc1ccccc1CC(=O)N(CCN(C)C)CC1CCCN(Cc2ccccc2F)C1 (configuration not stated),-11.9%,-21.0%,-2.3%,/
CC(C)CN1CCN(Cc2ccccc2C(F)(F)F)CC1CCO (configuration not stated),4.0%,-1.0%,-0.9%,-2.7
FC(F)(F)c1ccc2c(c1)N(CCCN1CCN(CCCl)CC1)c1ccccc1S2,4.9%,-0.9%,-4.1%,-8.8
CC(=O)NCC(=O)Nc1ccc(Br)cc1C(=O)c1ccccc1,-2.8%,-5.0%,-1.4%,2.1
Cn1c(O)c(C2=NN(C(=O)CCl)C(c3ccccc3)C2)c(=O)n(C)c1=O (configuration not stated),2.6%,-11.4%,1.0%,2.4
C=CCn1c(O)c(C(C)=NCCN2CCCCC2)c(=O)[nH]c1=O,-1.5%,-1.2%,-3.6%,-1.2
COP(=O)(NC(C)=O)SC (configuration not stated),/,17.7%,1.8%,/
COc1ccc(C(CNC(=O)CCc2ccsc2)N(C)C)cc1 (configuration not stated),-5.8%,-4.6%,0.5%,/
O=C1NC(=O)C2(CCCc3ccc(N(CCCl)CCCl)cc32)N1 (configuration not stated),/,30.2%,-1.0%,/
CC1CN(c2ccc([N+](=O)[O-])c3cccnc23)CC(C)N1 (configuration not stated),-9.2%,2.8%,-3.0%,-0.6
CCCC(=O)NC(Oc1ccccc1Cl)C(Cl)(Cl)Cl (configuration not stated),-0.4%,-1.9%,2.5%,-8.6
Cc1nc2c(c(C)nn2-c2ccccc2)c(C)c1CCC(=O)N1CCC2(CC1)OCCO2,0.7%,17.1%,-0.5%,4.1
CCOC(=O)C1(CCc2ccccc2)CCN(Cc2csc(C(C)=O)c2)CC1,-0.3%,-11.0%,5.0%,-10.2
CNP(=O)(Oc1ccccc1)OC12CC3CC(CC(C3)C1)C2 (configuration not stated),-2.6%,0.0%,6.3%,12.8
COC(=O)C1=C(c2cccc(OCc3ccccc3)c2)C[C@@H]2CC[C@H]1N2C(=O)NCc1cccc(OC)c1,/,-1.3%,0.0%,/
COc1ccc(CNCCc2c[nH]c3ccccc23)cc1OC,-4.7%,-0.5%,-0.7%,/
Cc1cccc(NC(=S)N2CC3CC(C2)c2cccc(=O)n2C3)c1C (configuration not stated),-0.8%,5.9%,-0.7%,11.3
CCn1c(C)c(C(=O)O)c2cc(OC)ccc21,-2.6%,-6.4%,4.5%,-2.4
CC(=NCc1cccnc1)c1c(O)n(Cc2ccccc2)c(=O)[nH]c1=O,-2.7%,11.6%,1.0%,4.8
CCC(=NCc1ccco1)c1c(O)n(-c2ccccc2C)c(=O)[nH]c1=O,-1.2%,-8.1%,0.5%,9.8
COc1cc(N2CCOCC2)ccc1/C=C1\C(=O)NC(=O)N(Cc2cccs2)C1=O,-1.1%,-16.2%,?,-7.9
CCC(=O)CC(c1ccc([N+](=O)[O-])cc1)c1c(O)c2ccccc2oc1=O (configuration not stated),-1.3%,13.1%,11.2%,0.7
Cc1ccc(Cl)cc1N1CCN(CCN)CC1,5.0%,?,6.1%,1.4
COc1ccc(C(=O)C2CCCN(Cc3cnc(C)s3)C2)cc1OC (configuration not stated),-5.6%,-3.5%,-0.9%,3.8
COC(/C(C)=C/C=C/C(C)=C/c1coc(C)n1)C(C)C1CC(O)C2(C)OC2C=CC(C)C2CC(CC(=O)O2)CC2OC2C(=O)O1 (configuration not stated),/,-7.2%,?,/
C=C(C)c1cccc(C(C)(C)NC(=O)NC2CN3CCC2CC3)c1 (configuration not stated),-5.2%,-21.2%,3.2%,2.7

# Not all compounds are listed. The share of hits here may be higher or lower than overall.
